Assay outcomes as filed in PubChem BioAssay.
gsp antag – antagonists of gsp mutant (McCune-Albright syndrome); gsp-mutant cells, cAMP HTRF, 30 min; control for the full effect not named in the record; Potency, µM (series often up to 76.9 µM), for the others: at the highest dose activity change, negative = inhibition, hits mostly inhibitors; actives 0.4% (n = 340,000); active = falling curve of any shape with a large fitted effect; inconclusive = falling curve, mostly with a smaller effect; inactive = flat or rising curve; cell line not stated here;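 further: intracellular cAMP measured with PDE inhibitor Ro 20-1724 present during compound exposure; potency means the concentration at half of the fitted maximal effect; on the % scale 0 is the no-effect control and ±100 the full control effect; nearly all actives have a fitted effect of over 65% in size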
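HTRF cAMP measurement after 30 min RT detection following 30 min, 37C compound treatment alongside […] (added as 300 uM solution) in G418-selected cells seeded at 2000/well and grown 16–24 h.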
Menin-MLL FL inh – inhibitors of human menin-MLL interaction, wild-type MLL peptide; 290,000 tested, under 10 active; FP activity change, % at 61.4 µM; Fluorescence polarization, fluorescein-MLL peptide displacement from menin; inconclusive = falling polarisation curve, or a change in total fluorescence; inactive = total fluorescence flat and polarisation flat or rising; no compound was filed as active; the % refers to the polarisation; negative = inhibition;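 further: % of control where 0% means no effect; inhibitors lower the polarisation; unlabelled MLL peptide was the positive control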
gsp agonist – gsp mutant agonism; gsp mutant cells, cAMP HTRF, 30 min; control for the full effect not named in the record; Potency, µM (series often up to 76.9 µM), for inactives: at the highest dose activation (cAMP increase), hits mostly activators; actives 0.13% (n = 340,000); active = well fitted activation curve with a large enough effect; inconclusive = small, poorly fitted or top-dose-only effect, or another doubt; inactive = no such curve, though single readings can be large or run the other way; cell line not stated here;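 further: phosphodiesterase inhibitor Ro 20-1724 added with compounds to block cAMP breakdown; potency means the concentration at half of the fitted maximal effect; nearly all actives have a fitted effect of over 60% in size; about a fifth of the inactives were tested at one dose only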
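Cells stably selected in G418 were plated at 2000/well, grown 16-24 hr, then given compounds in DMSO with the PDE inhibitor […] (300 uM solution added) for 30 min at 37C; cAMP was read by HTRF.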
TRPML1 inh – inhibitors of human TRPML1 channel; activity change, negative = inhibition, % (no concentration beside the values); AID 624415; TRPML1-inducible cells, Ca2+ dye fluorescence, FDSS; hits give low values; inhibition of EC80 agonist-evoked calcium signal; actives 0.02% (n = 390,000); in the data active means activity change below about -50%; inconclusive means about -30% to -50%; inactive means above about -30%;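 further: stimulus is agonist 54-4 at its EC80 concentration; on the % scale 0 is the no-effect control and ±100 the full control effect; compound concentration not given in the record; the text of the record puts the active cut at -80%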
Target sequence (Q9GZU1 whole entry, looked up): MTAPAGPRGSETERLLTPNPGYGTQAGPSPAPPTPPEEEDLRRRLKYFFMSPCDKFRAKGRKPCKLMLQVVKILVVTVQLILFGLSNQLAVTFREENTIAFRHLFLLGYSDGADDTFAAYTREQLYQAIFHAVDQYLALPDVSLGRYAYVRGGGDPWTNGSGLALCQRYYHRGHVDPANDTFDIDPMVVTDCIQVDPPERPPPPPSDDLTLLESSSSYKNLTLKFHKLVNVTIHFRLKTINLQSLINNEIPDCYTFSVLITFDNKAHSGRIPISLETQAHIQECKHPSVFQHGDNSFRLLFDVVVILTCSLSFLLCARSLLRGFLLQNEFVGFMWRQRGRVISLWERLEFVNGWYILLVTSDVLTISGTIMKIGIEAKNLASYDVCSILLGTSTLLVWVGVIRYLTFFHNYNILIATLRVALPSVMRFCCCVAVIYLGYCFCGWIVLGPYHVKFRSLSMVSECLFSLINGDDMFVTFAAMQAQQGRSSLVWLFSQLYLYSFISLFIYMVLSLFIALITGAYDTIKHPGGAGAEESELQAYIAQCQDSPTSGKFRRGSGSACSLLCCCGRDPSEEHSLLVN
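Tet-induced TRPML1-DL cells loaded with Ca8 no-wash calcium dye were read kinetically on FDSS. Compound addition was followed by EC80 agonist 54-4 (4 uM final); inhibition was read over 110 s.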
TRPML1 ag – activates the human TRPML1 channel | TRPML1-expressing cells, Ca2+ dye fluorescence, FDSS; host cell line not named in the record; reference of the full effect not given here | activation, % (no concentration beside the values) | actives 0.12% (n = 410,000); in the data active = activation above about 50%; inconclusive = about 30% to 50%; inactive = below about 30%; further: 0% is about no effect; the text of the record puts the active cut at 80%
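TRPML1-DL cells, Tet-induced overnight (~16 h, 37 degrees C), loaded 45-90 min at room temperature with Ca8 no-wash calcium dye plus quencher. FDSS fluorescence: 10 s baseline, compound pin-transfer, 110 s agonist read, then EC80 54-4 (4uM final) and 110 s antagonist read.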
ClpP mod – qHTS Assay for Activators of ClpP. ATP-dependent Clp protease proteolytic subunit (Bacillus subtilis (strain 168)), P80244. purified B. subtilis ClpP, FRET peptide cleavage, 20 min. Potency, µM (doses to about 57.5 µM), for inactives: top-dose activity change, negative = active. actives 1.9% (n = 340,000); active = well fitted falling curve with a large enough effect; inconclusive = small, poorly fitted or top-dose-only effect; inactive = no such curve, though single readings can be large or run the other way; further: potency means the concentration at half of the fitted maximal effect; the source files actives as falling curves though it sought activators and does not explain the sign; nearly all actives have a fitted effect of over 65% in size; many hits overshoot -100%
Target sequence (P80244 whole entry, looked up): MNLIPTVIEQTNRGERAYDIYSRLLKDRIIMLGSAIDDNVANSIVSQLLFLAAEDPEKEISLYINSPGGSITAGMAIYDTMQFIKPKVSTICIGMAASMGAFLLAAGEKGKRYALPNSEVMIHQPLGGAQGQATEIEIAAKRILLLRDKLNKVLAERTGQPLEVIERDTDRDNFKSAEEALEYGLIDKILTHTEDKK
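FRET quenching reversal measured ClpP activation: 10 microg/mL B. subtilis ClpP at pH 8 with the FRET-FV decapeptide, read at 430 nm after 320 nm excitation. The 20-min minus 0-min signal was scaled between DMSO/no-enzyme wells and ADEP (5.8 microM final).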
An asterisk follows results filed as active; ? = inconclusive; · = not tested or not shown; & = joins results of further samples; [ ] = remark or other dose.

Start of the data: the first 3 entries as a preview:
SMILES	gsp antag	Menin-MLL FL inh	gsp agonist	TRPML1 inh	TRPML1 ag	ClpP mod
CC(C(=O)Nc1ccc2c(c1)OCO2)n1cnc2c1c(=O)n(C)c(=O)n2C (stereo not drawn)	20%	·	?	-1	0.2	-2.4%
COc1ccc(C(=O)Nn2c(SCc3cccc([N+](=O)[O-])c3)nc3ccccc3c2=O)cc1	6%	5.0	-33%[inhibitor]	14	2.1	-3.1%
CC1CCN(CCOCCOc2ccccc2Br)CC1	15%	-4.2	20%[15.4 µM]	11	-0.1	·

The list itself, from the start:
SMILES	gsp antag	Menin-MLL FL inh	gsp agonist	TRPML1 inh	TRPML1 ag	ClpP mod
CC(C(=O)Nc1ccc2c(c1)OCO2)n1cnc2c1c(=O)n(C)c(=O)n2C (stereo not drawn)	20%	·	?	-1	0.2	-2.4%
COc1ccc(C(=O)Nn2c(SCc3cccc([N+](=O)[O-])c3)nc3ccccc3c2=O)cc1	6%	5.0	-33%[inhibitor]	14	2.1	-3.1%
CC1CCN(CCOCCOc2ccccc2Br)CC1	15%	-4.2	20%[15.4 µM]	11	-0.1	·
CCOC(=O)c1sc(SC)c(C(C)=O)c1C	2%	1.4	28%	4	1.7	-5.0%
CC(C)CN(C(=O)COC(=O)CCc1nc2ccccc2s1)c1c(N)n(Cc2ccccc2)c(=O)[nH]c1=O	-2%	·	-7%	-6	0.3	2.0%
O=S(=O)(c1ccc(Br)cc1Cl)N1CCN(CCO)CC1	11%	0.3	-6%	12	-0.1	·
Cc1ccc(C(=O)Nc2ccc3c(c2)OCO3)cc1	3%	-0.5	-3%	15	4.9	-2.3%
Cc1ccnc(NC(=O)c2cccc(OC(F)F)c2)n1	7%	3.5	8%	46	0.9	·
COc1cccc(/C=C2\SC(=S)N(CC3CCCO3)C2=O)c1 (stereo not drawn)	-7%	9.1	11%	11	3.7	-1.1%
COc1ccccc1NC(=O)NNC(=O)c1ccncc1	7%	·	26%	-15	-0.3	·
CCOc1cccc(/C=N/NC(=S)NCCN2CCOCC2)c1O	11%	0.6	15%	14	1.0	-19%
COc1ccc(NC(=O)Nc2ccccc2SC)cc1	11%	-2.1	-7%	3	-0.7	·
COc1ccccc1OCC(=O)Nc1ccccc1C(=O)NCc1cccnc1	-1%	-5.2	-6%	-8	1.6	·
COc1cc(-c2cc(C(=O)Nc3ccc(S(=O)(=O)Nc4ncccn4)cc3)c3ccccc3n2)cc(OC)c1OC	-13%	5.0	?	·	·	-4.3%
OCC[C@@H]1C[C@H](O)[C@@H](O)[C@]2(OCc3ccc4ccccc4c32)O1	·	·	-75%	0	0.0	-7.3%
COc1ccc(CN2CCN(C(=O)c3ccc4c(c3)CCC4)CC2)cc1OC	0%	·	-1%[15.4 µM]	-9	1.1	?
CN(C(=O)CSc1nnc(Cc2ccccc2F)n1N)C1CCCCC1	3%	·	15%[15.4 µM]	-11	0.1	-0.7%
C/C(Cn1cnc([N+](=O)[O-])n1)=N\NC(=O)c1ccc(F)cc1	-5%	5.1	15%	-7	0.0	0.0%
O=C(CCS(=O)(=O)c1ccc(F)cc1)Nc1nnc(-c2ccco2)o1	-16%	·	8%[15.4 µM]	-15	-0.5	·
CS(=O)(=O)N1CCN(CCN2C(=O)c3cccc4cccc(c34)C2=O)CC1	2%	-2.5	0%[15.4 µM]	0	-0.1	·
COCCN1Cc2cccc(C(=O)Nc3c(C)cc(C)cc3C)c2C1=O	-17%	2.3	-119%[inhibitor]	4	1.3	-1.6%
CCOc1cc(CN2CCOCC2)cc(C(C)=O)c1	5%	-1.5	?	10	-0.7	1.1%
CCCC(=O)NCCc1nc2ccccc2n1Cc1c(F)cccc1Cl	·	·	·	-20	2.7	1.0%
COc1cccc(COc2ccc3c(C)cc(=O)oc3c2)c1	4%	-5.2	5%[15.4 µM]	11	1.9	-3.1%
CCCn1cc(CN2CCC(N3CCC(C(=O)N4CCOCC4)CC3)CC2)c(C)n1	16%	-10	-1%[15.4 µM]	0	0.1	·
CCS(=O)(=O)N1CCN(C(=O)CCC2CCCC2)CC1	1%	3.1	-4%	6	0.0	-0.9%
O=C(Nc1cccnc1)c1cc(-c2ccc(Br)cc2)on1	0%	3.6	16%	1	-0.6	0.0%
Cc1ccc(Cl)cc1N1CCN(S(=O)(=O)c2cnc[nH]2)CC1	-1%	-5.9	-56%[inhibitor]	4	0.3	0.1%
C=CCNC(=O)NC(=O)COC(=O)[C@H](C)NS(=O)(=O)c1c(C)c(C)cc(C)c1C	0%	-1.7	?	4	0.5	-1.1%
COc1ccccc1C(=O)Nc1nnc(-c2ccc3c(c2)CCCC3)o1	-23%	3.0	-30%	9	-1.1	9.1%
CN(c1ccccc1)c1nc(N)c([N+](=O)[O-])c(Nc2ccc(F)cc2)n1	-3%	0.3	23%	8	1.8	1.4%
O=C(NCC1CCCN1S(=O)(=O)c1ccccc1)C(=O)NC1CC1 (stereo not drawn)	12%	·	-42%[inhibitor]	-15	-0.4	-1.1%
O=C(COC(=O)Cc1ccc(Cl)cc1)NCCc1ccccc1	12%	·	8%	-6	0.2	-2.4%
O=C(CCN1C(=O)c2ccccc2C1=O)Nc1ccc(F)cc1	-1%	-0.6	-51%[inhibitor]	5	0.0	1.0%
COc1ccc(C(CNCC(O)COc2c(C)ccc(C)c2C)N(C)C)cc1 (stereo not drawn)	13%	6.5	-9%	-8	1.1	0.5%
Cn1c(=O)c2cc(S(=O)(=O)NCCC(=O)Nc3ccccc3F)ccc2n(C)c1=O	6%	-0.5	-22%	3	-0.2	-0.7%

Random excerpt: two compounds from above.
SMILES	gsp antag	Menin-MLL FL inh	gsp agonist	TRPML1 inh	TRPML1 ag	ClpP mod
O=C(Nc1cccnc1)c1cc(-c2ccc(Br)cc2)on1	0%	3.6	16%	1	-0.6	0.0%
Cn1c(=O)c2cc(S(=O)(=O)NCCC(=O)Nc3ccccc3F)ccc2n(C)c1=O	6%	-0.5	-22%	3	-0.2	-0.7%

Next structures:
SMILES	gsp antag	Menin-MLL FL inh	gsp agonist	TRPML1 inh	TRPML1 ag	ClpP mod
CCOC(=O)c1c(S(=O)(=O)NCC2CCN(CCc3cccs3)CC2)c(C)n(C)c1C	13%	·	-29%	-4	-0.4	1.0%
Cc1cccc(N2CCN(C(=O)c3cccc(-n4c(C)nc5cccnc54)c3)CC2C)c1 (stereo not drawn)	·	·	·	16	1.6	-1.7%
O=C(O)CC/C(=C\c1cccc(NC(=O)c2ccccc2Cl)c1)c1nc2ccccc2s1	?	-3.4	10%	5	-0.3	4.2%
Cn1nccc1NC(=O)COCC(=O)O	12%	2.3	19%[15.4 µM]	-17	0.3	·
Cc1onc(-c2ccccc2)c1C(=O)NC(CC(=O)O)c1ccc(OC(C)C)cc1 (stereo not drawn)	-13%	3.3	-15%	3	-0.6	-0.1%
COc1ccccc1NC(=O)CC1Nc2ccccc2NC1=O (stereo not drawn)	-1%	9.4	-24%	-14	-0.7	-9.5%
C/C(=N/NC(=O)CNC(=O)COc1ccccc1)c1ccc(Cl)cc1	-3%	1.3	?	-3	-0.6	-1.3%
O=[N+]([O-])c1ccccc1S(=O)(=O)N1CCCc2ccccc21	-8%	3.0	5%	5	0.4	2.3%
Cc1cc(=O)oc(C)c1C(=O)OCC(=O)c1ccc(Br)cc1	-5%	0.6	-2%	-12	0.9	-4.0%
C[C@H]1CN([C@@H](C)CO)S(=O)(=O)c2ccc(Br)cc2O[C@H]1CN(C)C(=O)c1cnccn1	·	·	22%	-16	-0.4	-0.8%
Cc1cc(C)nc(-n2nc(C)cc2Nc2ccccc2)n1	2%	1.8	-7%	4	2.2	-0.1%
O=C(NCc1cccs1)c1ccc(CSc2nc3ccncc3n2Cc2ccccc2)cc1	·	·	·	-4	2.3	-14%
CC(C)C[C@H](NC(=O)c1nc[nH]c1C(=O)N[C@@H](CCCCNC(=O)OC(C)(C)C)C(=O)OC(C)(C)C)C(=O)OCc1ccccc1	4%	1.4	-30%[inhibitor]	-8	0.5	-1.1%
COc1cccc(-n2c(C)nc3c(cnn3-c3ccc(C)cc3)c2=O)c1	-24%	0.9	-39%[inhibitor]	9	-0.9	-4.8%
CN1C2Cc3c(n(C)c4ccccc34)C1CC=C2CO (stereo not drawn)	2%	·	·	13	0.1	?
COc1ccccc1C(=O)Nc1cc(-c2ccc(C)cc2)no1	-25%	4.0	22%	5&-7	2.4&-0.6	-11%&-17%
COc1ccc(C2=NN(CC(=O)Nc3ccccc3C)C(=O)CC2)cc1	6%	1.0	-19%[15.4 µM]	0	1.0	·
CCCCCCCCC(=O)N1C(C)CCC1C (stereo not drawn)	·	·	-27%	0	-0.1	0.6%
COC(=O)c1ccc(-c2ccc([C@H]3[C@H]4C=CC[C@@H](C)[C@@H]4C(=O)N3Cc3ccccc3)c(F)c2)cc1	-4%	-1.6	·	80	0.2	-21%
CCOC(=O)C1(Cc2cccc(OC)c2)CCN(CCO)CC1	6%	31[activator]	-8%[15.4 µM]	-9	-0.2	·
CCOC(=O)c1c2n(c3ccc(O)cc13)CCC2	-3%	-1.0	14%	6	-0.5	-0.8%
Cc1cc(=O)[nH]c(SCn2nnc3ccccc3c2=O)n1	5%	1.9	?	-9	5.4	0.5%
COc1ccc(S(=O)(=O)N2CCN(C(=O)c3ccco3)CC2)cc1C(C)(C)C	3%	-1.1	-3%	-5	0.6	-0.8%
O=C(C1CCC1)N1CCc2cc(S(=O)(=O)Nc3ccc4c(c3)OCCO4)ccc21	?	8.3	-33%[inhibitor]	-10	-1.1	-0.2%
CCOc1ccc(C(=O)c2cn(CC(=O)Nc3cccc(OC)c3)c3cc4c(cc3c2=O)OCCO4)cc1	·	·	·	-17	2.0	-7.4%
CC(=O)c1ccc(NC(=S)N2CCN(C(=S)Nc3ccc(C(C)=O)cc3)C(C)C2)cc1 (stereo not drawn)	-7%	15	-5%[15.4 µM]	2	-0.5	·
O=S1(=O)NC(=NCCOCCO)c2ccccc21	8%	4.0	-26%	11	-0.2	·
CC(C)COC(=O)c1ccccc1OC(=O)c1ccncc1	8%	-1.4	3%[15.4 µM]	14	2.7	·
COc1ccccc1CNC(=O)CSc1nc(=O)n(Cc2ccncc2)c2c1CCC2	-8%	·	-2%[15.4 µM]	-7	-0.1	-10%
Cc1cc(C(=O)N2CCc3ccccc32)c2ccccc2n1	-14%	-0.6	25%	4	0.8	2.6%
O=C(NCCc1nccs1)C1CCC(=O)N(Cc2cccc(C(F)(F)F)c2)C1 (stereo not drawn)	13%	-4.2	5%	16	0.2	-0.5%
Cc1ccc(S(=O)(=O)CCC(=O)OCC(=O)c2cc(C)ccc2C)cc1	0%	·	-2%	23	0.8	-2.9%
Cc1cccc(N2CCN(c3nc4ccccc4c4nc(-c5cccnc5)nn34)CC2)c1C	·	·	·	-7	-0.7	?
Cc1ccc(/C=N/NC(=O)CSc2nc3ccccc3c(=O)n2-c2ccccc2C)s1	-5%	·	-3%	1	0.2	-1.6%
